NPYLR7 agonist = agonists of mosquito NPYLR7 receptor, primary screen, cell-based, Aedes aegypti, calcium fluorescence, mosquito biting behavior. HEK293T NPYLR7/Galpha15, GCaMP6s calcium fluorescence. activation, % at 10 µM. actives 0.15% (n = 270,000). AID 1259423, 2018; in the data active means activation above about 40%;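 further: 0% = vehicle and 100% = reference agonist at the receptor; some compounds past the cut are filed as inactive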
NPYLR7 agonist max-min = second read-out of NPYLR7 agonist, no call of its own (marks repeat the call); activation, %; measured here: Max-Min RFU normalised activation; some inactives read as strong as hits;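 span of the calcium signal over five minutes; 0% = vehicle and 100% = native peptide agonist; compound fluorescence can raise it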
* marks the source's active call; other numbers are inactive results; & = joins results of further samples.

SMILES | NPYLR7 agonist max-min | NPYLR7 agonist
OCC1CCCN(Cc2cc(F)cc3c2OC(c2ccsc2)OC3)C1 (stereo not drawn) | 5 | 5
CCc1ccccc1NC(=O)c1cc2nc(-c3ccc(Br)cc3)cc(C(F)(F)F)n2n1 | 0 | 6
Cc1cccc(-c2cc(N)n(-c3ccc(C(=O)Nc4ccc(Oc5ccccc5)cc4)cc3)n2)c1 | -10 | -8
O=C(OCCc1cn[nH]c1C(F)(F)F)C1CSCN1C(=O)C1CCCC1 (stereo not drawn) | -1 | -1
O=C(c1cc(-c2ccco2)on1)N1CCOCC1 | -2 | -1
CC(OCC1CCCO1)C(=O)N1CCc2[nH]c3ccc(Cl)cc3c2C1 (stereo not drawn) | 16 | 12
COC(=O)CCN1CC(OCc2cccc(OC)c2)CN(C(=O)c2ccc(C)c(C)c2)CC1=O (stereo not drawn) | -14 | -5
COc1ccc(CN2C3CCC2CC(NC(=O)C24CC[C@@](C)(C(=O)O2)C4(C)C)C3)c(OC)c1 (stereo partly drawn) | 3 | 3
CCOc1cccc(-c2cncc(NC(C)=O)n2)c1 | 2 | 4
Cc1ccc(COc2cn(CC(=O)N3CCN(c4ccccc4)CC3)c(CO)cc2=O)cc1 | 1 | 0
Cc1ccc(CN2CCCN(S(=O)(=O)c3ccc(S(=O)(=O)N4CCCC4)cc3)CC2)cc1 | 1 | 4
Cc1c2c(n(Cc3ccc(F)cc3F)c1C(=O)N1CCN(c3ccccc3F)CC1)CCCC2 | 8 | 0
Cc1nc(CNC(=O)Cc2cccc(Br)c2)n[nH]1 | 4 | 7
O=C(COc1ccc(C(=O)N2C[C@H]3CC[C@H]2C3)cc1)N1CCCCC1 | -9 | -3
Cc1ccccc1-c1c(N/N=C\c2ccc(F)cc2)oc2ccccc2c1=O | 0 | 1
Cc1oc(NC(=O)CN2CCN(C)CC2C)c(C#N)c1C (stereo not drawn) | 5 | 13
Cc1nc2c(C(=O)N3CCOC(c4ccc(Cl)c(Cl)c4)C3)cccc2[nH]1 (stereo not drawn) | 9 | 19
CCOC(=O)c1sc2nc(CNCc3ccccc3)[nH]c(=O)c2c1C | 33 | 22
CCC(C)(CNC(=O)c1cc2c(s1)CCC2)N1CCOCC1 (stereo not drawn) | -30 | -25
O=C(Nc1ccc(-c2noc(-c3cccc([N+](=O)[O-])c3)n2)cc1)c1cccc(Cl)c1 | -10 | -3
O=C(CSc1nc(=O)n(Cc2ccncc2)c2c1CCC2)NCCc1ccccc1 | -2 | -2
COCCCN(CC(=O)N(CCc1c[nH]c2ccccc12)Cc1ccc(C)cc1)C(=O)Nc1cccc(C)c1C | 9 | 9
OC(COc1ccccc1)CN(Cc1ccsc1)Cc1ccco1 (stereo not drawn) | 29 | 27
Cc1ccc(NC(=O)CC2C(=O)Nc3ccccc3N2C(C)C(=O)N2CCCCC2)c(C)c1 (stereo not drawn) | -3 | -1

Continued, starting with the last 6 of the part before.
SMILES | NPYLR7 agonist max-min | NPYLR7 agonist
CCC(C)(CNC(=O)c1cc2c(s1)CCC2)N1CCOCC1 (stereo not drawn) | -30 | -25
O=C(Nc1ccc(-c2noc(-c3cccc([N+](=O)[O-])c3)n2)cc1)c1cccc(Cl)c1 | -10 | -3
O=C(CSc1nc(=O)n(Cc2ccncc2)c2c1CCC2)NCCc1ccccc1 | -2 | -2
COCCCN(CC(=O)N(CCc1c[nH]c2ccccc12)Cc1ccc(C)cc1)C(=O)Nc1cccc(C)c1C | 9 | 9
OC(COc1ccccc1)CN(Cc1ccsc1)Cc1ccco1 (stereo not drawn) | 29 | 27
Cc1ccc(NC(=O)CC2C(=O)Nc3ccccc3N2C(C)C(=O)N2CCCCC2)c(C)c1 (stereo not drawn) | -3 | -1
COc1cn(CC(=O)N2CCc3ccccc32)c(CSc2ccc(C)cc2)cc1=O | -6 | -2
Cc1cc(C)cc(-c2nnc(SCC(=O)N(C)c3ccccc3)o2)c1 | 0 | 1
COc1ccc(-c2cc(C(F)(F)F)n3nc(C(=O)Nc4cc(C(C)(C)C)on4)cc3n2)cc1 | 2 | 1
Nc1nc(N2CCCC2)nc(Nc2ccccc2F)c1[N+](=O)[O-] | 3 | 6
CN(C)S(=O)(=O)c1ccc(C(=O)Nc2c3c(nn2CC(=O)NCC2CCCO2)CSC3)cc1 (stereo not drawn) | -6 | -8
C=CCOCC(O)CN(CCOC)Cc1c(-c2ccccc2)noc1N1CCCC1 (stereo not drawn) | 4 | 0
CCOCCc1nnc(NC(=O)/C=C/c2ccccc2)s1 | 9 | 3
COc1ccc(Cn2c(-c3cc(C)nn3C)n[nH]c2=O)cc1 | -2 | 1
Cc1cccc(C(=O)N2CCCc3c(F)ccc(F)c32)n1 | 1 | 4
O=C(NC(c1ccc(F)cc1)c1ccc2ccccc2n1)C1CCN(CCc2ccc(F)cc2)CC1 (stereo not drawn) | -4 | -1
CC1CCc2nc(NC(=O)C3CCCN3S(=O)(=O)c3ccc(F)cc3)sc2C1 (stereo not drawn) | -5 | -2
COc1ccc(CC(=O)Nc2c(C)nc3cc(C)ccn3c2=O)cc1 | -1 | 3

2 entries from above, as labelled records.
COc1ccc(-c2cc(C(F)(F)F)n3nc(C(=O)Nc4cc(C(C)(C)C)on4)cc3n2)cc1
  NPYLR7 agonist max-min: 2 | NPYLR7 agonist: 1
Cc1cc(C)cc(-c2nnc(SCC(=O)N(C)c3ccccc3)o2)c1
  NPYLR7 agonist max-min: 0 | NPYLR7 agonist: 1

(cont.)
SMILES | NPYLR7 agonist max-min | NPYLR7 agonist
Cc1c(C(=O)O)sc2ncnc(N3CCC(N4CCOCC4)C3)c12 (stereo not drawn) | 13 | 2
Cn1c(=O)oc2cc(NC(=O)C3CCN(C(=O)OC(C)(C)C)C3)ccc21 (stereo not drawn) | -2 | 0
CC1(C)C2CC=C(CN3CCN(c4ccccc4)CC3)C1C2 (stereo not drawn) | 5 | 8
Fc1ccc(-c2nc(-c3ccccc3)no2)cc1 | 0 | 6
O=C1N(CCCc2ccccc2)CCCC1(O)CNCC(F)F (stereo not drawn) | -21 | -19
CCn1ccc(C(=O)N2CCCC3(C=Cc4ccccc4O3)CC2)n1 (stereo not drawn) | -3 | 0
O=S(=O)(NCCc1nc2ccccc2s1)NCc1ccccc1 | 0 | 2
CC(=O)Nc1cnc(-c2ccccc2O)cn1 | -2 | -1
Cc1ccc(-n2ncc(C(=O)N3CCOCC3)c2C)cc1 | 9 | -6
CC(C)(C)c1cc2nc(-c3ccc(F)cc3)cc(C(=O)N3CCN(c4cccc(C(F)(F)F)c4)CC3)n2n1 | 1 | -6
COc1nc(N2CCCCCC2)nc(N2CCN(C)c3ccccc3C2)n1 | -1 | 1
Cc1cc(=O)[nH]c(-n2nc(C)c(CCC(=O)Nc3ccncc3)c2C)n1 | 21 | 22
Cc1c(C(C)NC(=O)C2CSC(=O)N2)oc2ccc(F)cc12 (stereo not drawn) | -28 | -24
COc1cc(C)cc2c(C)c(C(=O)O)oc12 | 0 | 1
Cc1ccc(CCn2ccnc2-c2nc[nH]c2C)o1 | 3 | 6
O=c1c2c(-c3ccccc3)csc2ncn1CC(O)COc1ccccc1 (stereo not drawn) | -5 | -3
COc1ccc(OC)c(S(=O)(=O)Nc2ccc(C)c(C)c2)c1 | -1 | 1
CC(C)CC(=O)N(CCN(C)C)Cc1nccn1Cc1ccccc1Cl | -3 | -9
COc1ccc(-c2c(C#N)c(SCc3ccccc3C)nc(C)c2C(=O)Nc2ccccc2)cc1 | -14 | -12
CC(C)CN(CC(C)C)C(=O)CCN1C(=O)c2ccccc2C1=O | 2 | 2
Cc1ccsc1CN(C)C(=O)[C@@]12CC[C@@](C)(OC1=O)C2(C)C | -8 | -7
Cc1oc(-c2cccs2)nc1Cn1cnc(C#N)n1 | 0 | 0
Cc1csc(SCc2cc(=O)c(OC(=O)c3ccc4c(c3)OCO4)co2)n1 | -10 | -7
O=C(NCC1CCCN(Cc2nc3ccccc3s2)C1)c1cc2ccccc2[nH]1 (stereo not drawn) | -2 | 0

2 entries from above, with values under each structure:
Value order: NPYLR7 agonist max-min | NPYLR7 agonist
Cc1ccc(CCn2ccnc2-c2nc[nH]c2C)o1
 : 3 | 6
O=c1c2c(-c3ccccc3)csc2ncn1CC(O)COc1ccccc1 (stereo not drawn)
 : -5 | -3

Next entries:
SMILES | NPYLR7 agonist max-min | NPYLR7 agonist
CCn1c(SCc2cc(C)no2)nc2ccccc2c1=O | 8 | 2
CCOc1ccc(OCC)c(C(=O)Nc2nccs2)c1 | 2 | 3
CCCCN(C)C(=O)c1ccc(-c2nc(N)c3c(C)c(C)sc3n2)cc1 | 0 | 4
CCC(C)N(Cc1ccc(C(O)(c2cccc(F)c2)c2cccc(F)c2)o1)Cc1ccccc1OC (stereo not drawn) | -1 | -7
O=C(COc1ccc(F)cc1)NNC(=O)c1ccc(=O)n(Cc2ccc(Cl)cc2)c1 | -18 | -11
CCn1cc(NC(=O)N2CCCc3ccccc32)c2ccccc21 | 2 | 4
CC1CCCCN1CCOc1ccccc1C(=O)NNC(=O)C1CC1 (stereo not drawn) | -5 | -4
Cc1cc(C(=O)N2CCCC(CNS(=O)(=O)c3cccs3)C2)c2ccc(F)cc2n1 (stereo not drawn) | 14 | 31
CNC(=O)CC1CCN(Cc2nccn2C(C)C)CC1 | -2 | 6
C=CCN(CC=C)C(=O)CSC1=C(C#N)C(C)(C)C(C#N)C(=O)N1 (stereo not drawn) | 0 | 3
Cc1cc(OCCCCN2C(=O)NC(C)(C)C2=O)ccc1[N+](=O)[O-] | -3 | -5
CCC(C(=O)NCc1nnc(C)o1)n1cc(C(C)=O)c2ccccc21 (stereo not drawn) | 10 | 24
CCCn1c(C(=O)Nc2ccc(C)c(Cl)c2)cc2c(=O)n(C)c(=O)n(C)c21 | -1 | -1
CCc1ccc(-c2cc3c(=O)n(Cc4nc(-c5ccc(SC)cc5)no4)ccn3n2)cc1 | 1 | 1
CCOC(=O)c1nn(C)c2c1CN(Cc1ccc(N(C)c3ccccc3)cc1)CC2 | -5 | 7
CC(=O)Nc1ccc(Cl)c(NC(=O)c2ccc(Cl)cc2)c1 | 2 | 4
CN(C1(C)CCS(=O)(=O)C1)S(=O)(=O)c1ccc(F)cc1 (stereo not drawn) | 0 | 2
C#CCOc1ccc(CN2CCOC3(COCCN(C(=O)CC)C3)C2)cc1 (stereo not drawn) | -2 | -3
CCc1ccc(S(=O)(=O)NCCOc2ccc(-c3ccc(F)cc3)nn2)s1 | -10 | -8
COc1ccc(NC(=O)NCCCn2nc(-c3ccc(OC)cc3)ccc2=O)cc1 | -2 | -2
CC1CCC(NC(=O)CCCn2c(=S)[nH]c3cc4c(cc3c2=O)OCO4)CC1 (stereo not drawn) | -2 | -2
CS(=O)(=O)CCOCCNC(=O)c1cc2c(cc1O)CCCC2 | 1 | 5
COc1ccccc1C(=O)N(CC(=O)N1CC(=O)N(c2ccc(Cl)cc2)C1)Cc1ccco1 | 5 | -4
c1ccc(-c2ncn(CCc3cnn(-c4ccccc4)c3)c2-c2cnc[nH]2)cc1 | -2 | -1
c1cncc(CN(CC2CCN(C3Cc4ccccc4C3)CC2)CC2CCCO2)c1 (stereo not drawn) | 8 | 15
O=C(Nc1ccc(OC(F)F)cc1OC(F)F)c1ccc2c(c1)COC2 | 245 | -8
O=C(CN1CSCC1=O)NN(c1ccccc1)c1ccccc1 | 7 | 13
CN1CCCC(C)(C(=O)Nc2ccc(-n3cccc3)cc2)C1 (stereo not drawn) | 0 | 2
Cc1nc(C(C)C)ncc1C(=O)N1CCC(c2ccccc2C(=O)O)C1 (stereo not drawn) | -11 | -7
CNc1cnc(-c2ccc3c(c2)OCO3)cn1 | 3 | 3
CCn1c(C)nc2cc(C(=O)N3N=CCC3(O)C(F)(F)F)ccc21 (stereo not drawn) | -2 | -1
Cc1ccc(N(CC(=O)N2CCN(C(=O)CN(c3ccc(C)cc3)S(=O)(=O)c3ccc(F)cc3)CC2)S(=O)(=O)c2ccc(F)cc2)cc1 | 7 | 9
COc1ccc(COc2ccccc2C(N)=O)cc1F | 6 | 5
COc1ccc(C2=NN(C(=O)CN3CCc4ccccc4C3)C(c3ccccc3C)C2)cc1 (stereo not drawn) | 6 | -3
COC(=O)c1cc(OC(=O)c2ccc(Cl)cc2Cl)n(C)n1 | -2 | 0
CCOCCOC(=O)C1=C(C)NC2=C(C(=O)CC(c3ccccc3)C2)C1c1ccc(Cl)cc1Cl (stereo not drawn) | 6 | 9
O=C(CN1CCCC1)Nc1cc(Oc2ccc(Br)cc2)ccc1C(F)(F)F | 5 | 8
COCCN(Cc1ccc(OC)cc1)CC(O)COC(C)C (stereo not drawn) | 34 | 45
CCN(CC)[P+](C)(c1nc2ccccc2n1C)N(CC)CC | 2 | 2
COC(=O)Cn1c(=O)n(C)c2c(=O)n(C)c(=O)n(C)c21 | -11 | -2
CN(C)CC(NC(=O)c1ccc2c(c1)OCO2)c1ccccc1 (stereo not drawn) | 3 | 6
CC(C)CNc1nnc(SCC(=O)NCc2ccc(F)cc2)s1 | -5 | -3
CC(NCC(=O)N1CCC(c2ccccc2)=N1)c1ccc(F)cc1F (stereo not drawn) | 5 | 4
COc1ccc(C2C3C(=O)CC(C)(C)CC3=Nc3ccccc3N2C(=S)Nc2ccccc2)cc1 (stereo not drawn) | -17 | -10
COc1cc(NC(=O)C2CC2)c(OC)cc1Cl | 12 | -5
CCOC(=O)c1c(C)[nH]c(C(=O)CSc2ncccn2)c1C | -2 | 2
Cc1ncc(CN2CCCC(CCNS(C)(=O)=O)C2)[nH]1 (stereo not drawn) | 1 | 0
Cc1ccc(C2(O)CCN(C(=O)C3CCCCn4nnnc43)CC2)nc1 (stereo not drawn) | 3 | 6
COc1cccc(OC)c1OCCNCC1COc2ccccc2O1 (stereo not drawn) | -16&-11 | -5&-4
CCn1nc(C)cc1C(=O)N1CCCCC1CCn1ccnc1 (stereo not drawn) | 3 | 7
Cc1cc(-c2ccccc2)n(-c2n[nH]c(=S)n2N)n1 | -19 | -11
CCOC(=O)Cn1c(=O)c2c(nc3n(-c4ccc(Cl)cc4)c(C)cn23)n(C)c1=O | 14 | 1
CNc1cncc(-c2ccccc2NS(C)(=O)=O)n1 | 0 | 2

Compound activity deposited in PubChem by Fisher Drug Discovery Resource Center.

The list is partial. The share of hits here may be higher or lower than overall.
